Assay outcomes (PubChem)
RecA intein inh: Mtb RecA intein splicing inhibition; P9WHJ3; cell-free RecA intein splicing, fluorescence; hit rate 0.75% among 290,000; inhibition, %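 (about 9 µM by stock and volumes)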; AID 2221; in the data active = inhibition above about 30%; inconclusive = no clear call, values can overlap the other calls;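 note: 0% = vehicle wells and 100% = reference inhibitor control wells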
Target sequence (P9WHJ3 whole entry, looked up): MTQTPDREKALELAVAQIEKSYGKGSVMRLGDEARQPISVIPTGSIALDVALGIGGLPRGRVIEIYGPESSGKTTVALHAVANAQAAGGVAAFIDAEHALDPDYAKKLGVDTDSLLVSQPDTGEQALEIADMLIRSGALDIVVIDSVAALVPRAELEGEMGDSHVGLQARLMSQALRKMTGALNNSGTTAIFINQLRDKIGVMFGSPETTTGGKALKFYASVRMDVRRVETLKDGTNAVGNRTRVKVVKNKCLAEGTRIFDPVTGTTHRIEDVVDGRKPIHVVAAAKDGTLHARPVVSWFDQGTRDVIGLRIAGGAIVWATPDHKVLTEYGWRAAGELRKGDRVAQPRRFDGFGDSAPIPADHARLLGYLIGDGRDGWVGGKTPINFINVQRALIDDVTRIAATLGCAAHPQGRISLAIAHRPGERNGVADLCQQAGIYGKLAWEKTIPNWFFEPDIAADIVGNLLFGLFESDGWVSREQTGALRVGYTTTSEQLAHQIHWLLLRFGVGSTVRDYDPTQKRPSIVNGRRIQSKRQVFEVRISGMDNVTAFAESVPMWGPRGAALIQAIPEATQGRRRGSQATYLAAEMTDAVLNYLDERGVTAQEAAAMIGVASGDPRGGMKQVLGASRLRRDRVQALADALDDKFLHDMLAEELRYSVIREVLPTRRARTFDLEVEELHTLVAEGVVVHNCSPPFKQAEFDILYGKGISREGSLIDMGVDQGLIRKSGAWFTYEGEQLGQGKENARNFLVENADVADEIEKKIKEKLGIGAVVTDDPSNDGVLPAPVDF
YopH PTP inh: blocks Yersinia enterocolitica YopH tyrosine phosphatase; fluorescence Ex485/Em525; inhibition, %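 (about 10 µM by stock and volumes)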; hit rate 0.16% among 140,000; AID 898;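 active = inhibition of 50% or more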;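 note: controls were vehicle for no effect and minimum signal wells for full effect; inactives centre near -20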
Arbovirus anti: blocks arbovirus infection. arbovirus infection cell-based antiviral screen. inhibition, % at 10 µM. hit rate 0.37% among 200,000;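 active = inhibition from about 30%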;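 note: bluetongue infection of BSR cells; cell survival read as ATP light after 72 h; 0% = infected wells without compound and 100% = uninfected wells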
Mtb growth: M. tuberculosis H37Rv growth inhibitors, H37Rv strain (AID 1626). M. tuberculosis H37Rv growth inhibition; higher % means a stronger effect. one-dose inhibition, % at 10 µM; IC50 in µM for titrated hits. hit rate 0.95% among 220,000;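 active = confirmed in a dose series; inconclusive = inhibition above 80% but not taken into the dose series; inactive = below 80% or under 30% at every dose of the series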;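 note: bacteria incubated seven days before Alamar blue readout; 0% = bacteria only wells and 100% = bacteria with antibiotic wells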
Mtb betalactam: beta-lactam sensitization of Mtb H37Rv. M. tuberculosis H37Rv growth with meropenem, percent inhibition; hits of this screen are not shown here. inhibition, % at 25 µM. hit rate 0.27% among 330,000. AID 434955;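 active = about 74% or more and at least 40 points above the plate without the antibiotic, then above 30% in a dose series; inconclusive = first-round hits that could not be retested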;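 note: growth measured after seven days incubation then overnight dye step; 0% = bacteria only wells and 100% = bacteria with antibiotic; twin plates without the antibiotic show which effects depend on it; some results filed as inactive read as strong as hits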
Arbovirus anti repeat: second read-out of Arbovirus anti, no call of its own (marks repeat the call); inhibition, %; measured here: 10K subset replicate screen; many hits read low in the repeat;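 first of two repeat runs on a subset; 0% = infected and 100% = uninfected wells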
* = called active by the depositor; ? = inconclusive; nt = no result given. Not all compounds are listed. The share of hits here may be higher or lower than overall.

SMILES | RecA intein inh | YopH PTP inh | Arbovirus anti | Mtb growth | Mtb betalactam | others
CCOC(=O)N1CCC(N2CCN(S(=O)(=O)c3ccc([N+](=O)[O-])cc3)CC2)CC1 | -1.4 | nt | nt | 1% | 5
COC(=O)[C@@]12CCCCN1[C@H](c1ccc(-c3ccc(F)cc3)cc1)[C@@H]1C(=O)N(C)C(=O)[C@@H]12 | 0.6 | nt | nt | nt | -5
O=C(O)C1CCCN(S(=O)(=O)c2ccc(-c3ccc(=O)[nH]n3)s2)C1 (stereo not drawn) | -5.9 | nt | nt | nt | 19
NC(=O)CSc1nnc(Cc2csc(Nc3ccccc3)n2)n1Cc1ccccc1 | 3.4 | -7 | -1 | -5% | 2
CN(c1ccccc1)S(=O)(=O)c1cccc(NC(=O)c2cc3ccccc3oc2=O)c1 | 2.7 | nt | nt | 9% | 5
COCCN1CSC(=S)N(Cc2ccco2)C1 | 0.6 | -46 | -3 | -2% | 53
Cc1cccc(-c2nc(CS(=O)CC(=O)NCCc3ccc(Cl)cc3)c(C)o2)c1 (stereo not drawn) | 0.5 | nt | nt | nt | -2
N#Cc1cc2c(nc1SCc1cccnc1)CCCC2 | 0.6 | -11 | -3 | -8% | -6
O=C(N/N=C/c1ccoc1)c1ccc(Cl)cc1 | -2.6 | nt | nt | nt | -12
CCOc1ccc(/C=N/NC(=S)NC2CC3CC2C2C=CCC32)cc1 (stereo not drawn) | 3.3 | nt | nt | 19% | 0
COc1ccc(N=C2SCC(c3ccc([N+](=O)[O-])cc3)=NN2CCO)cc1 | nt | nt | nt | 0% | -2
O=C(/C=C/c1ccccc1)c1ccccn1 | -3.9 | -6 | -25 | -12% | 91
O=C(CSc1ccc(F)cc1)Nc1ccccc1N1CCOCC1 | 2.9 | nt | nt | nt | -2
CC(=O)Nc1sc2c(c1C(c1ccncc1)N1CCOCC1)CCCC2 (stereo not drawn) | 0.9 | nt | -2 | 1% | 4
COc1ccc(/C(C)=N/NC(=O)c2nnn(-c3nonc3N)c2-c2cccs2)cc1OC | -0.3 | nt | nt | nt | 9
Cc1ccccc1SCC(=O)Nc1cc(C(F)(F)F)ccc1N1CCOCC1 | 2.6 | nt | nt | nt | -6
CCc1ccccc1NC(=O)NC1CCCCC1 | -6.5 | 0 | 1 | 10% | 4
Cc1ccnc(SC2CC(=O)N(c3ccc(Br)cc3)C2=O)n1 (stereo not drawn) | 3.4 | nt | nt | nt | 3
O=C(NCc1ccco1)c1cccc(NS(=O)(=O)c2cccc(F)c2)c1 | -2.2 | -40 | 6 | -2% | 0
Cc1cccc(-c2nc(CS(=O)CC(=O)NC3CCCC(C)C3C)c(C)o2)c1 (stereo not drawn) | 3.6 | nt | nt | nt | 0
CC(=O)NC(Cc1ccccc1C)C(=O)NC1CCN(c2nnnn2-c2ccccc2)CC1 (stereo not drawn) | -3.6 | nt | nt | -2% | -5
COc1ccc(C(=O)OCCN2CCOCC2)cc1 | -2.5 | -6 | -3 | 5% | -5
O=C(c1ccc(Br)cc1)N(Cc1nc2ccccc2c(=O)[nH]1)C1CCCC1 | 3.8 | nt | -19 | 1% | 8
CCC1Sc2ccccc2N(CC(=O)NCCC(C)C)C1=O (stereo not drawn) | 3.3 | -5 | -2 | -14% | 0
CCC(=O)N1CCN(c2ccc(NC(=O)c3ccc([N+](=O)[O-])o3)cc2)CC1 | -3.9 | nt | -32 | ? | nt
O=C(O)c1cc(NCc2cccs2)ccc1N1CCOCC1 | -2.9 | -35 | 3 | -9% | 11
O=C(c1ccc2c(c1)OCO2)N1CCC2(CC1)Oc1ccc(Cl)cc1C(=O)C21CC(c2ccc(Cl)cc2)=NO1 (stereo not drawn) | 3.7 | nt | nt | -1% | nt
Cc1nn(-c2ccccc2)c2nc(C(Cl)(Cl)Cl)[nH]c(=O)c12 | -0.4 | nt | nt | -92% | -3
Cc1ccc(C(=O)CCC(=O)Nc2ccccc2C)cc1C | -0.7 | nt | nt | nt | 0
CCn1c(=O)cc(SCC(=O)NCCN2CCN(Cc3ccccc3)CC2)c2ccccc21 | -0.2 | 4 | -6 | 8% | -4
O=C1CS/C(=N/N=C/c2c[nH]c3ccccc23)N1 | -5.4 | nt | nt | 1% | 4
Cc1cccc(C(=O)NNC(=O)c2ccc(O)cc2)c1 | -1.2 | nt | nt | nt | -4
COc1ccc(C2=NOC(C(=O)Nc3cccc(O)c3)C2)cc1 (stereo not drawn) | -1.3 | nt | nt | nt | -3
Cc1ccc(NC(=S)NCCc2c[nH]c3ccccc23)c(C)c1 | -1.6 | nt | nt | 4% | 4
COc1ccc(NC(=O)C2(S(=O)(=O)c3ccc(C)cc3)CC2)cc1OC | -0.4 | nt | nt | nt | 0
CC12CCC(C(=O)Nc3ccccc3N3CCOCC3)(CC1=O)C2(C)C (stereo not drawn) | 0.2 | -26 | 4 | -4% | -6 | Arbovirus anti repeat=1
CC(=O)Nc1ccc(N2C(=O)c3cccc(NC(C)=O)c3C2=O)cc1 | nt | 46 | 5 | 3% | 4
O=C(Cn1cnc2ccccc2c1=O)Nc1nnc(SCc2ccc(Cl)cc2)s1 | 0.2 | nt | nt | -10% | -2
CS(=O)(=O)N(CC(=O)N1CCN(Cc2ccccc2)CC1)c1ccc(F)cc1 | -0.7 | nt | nt | nt | -4
O=C(c1ccc(C(F)(F)F)cc1)C1CCCN(C(=O)c2csnn2)C1 (stereo not drawn) | 0.4 | nt | 6 | -5% | -2
[O-]c1c[n+](-c2ccc(-[n+]3cc([O-])on3)cc2)no1 | -0.3 | nt | -2 | 7% | -2
COc1ccccc1NC(=O)CSc1nnc(C2CCCCC2)n1C | 3.1 | -5 | 2 | 10% | -5
CCOC(=O)c1ccc(NC(=S)N2CCSC2c2c(F)cc(F)cc2F)cc1 (stereo not drawn) | 0.0 | -10 | 41* | ? | -2
CCCCN(C)CC(O)Cn1cc(/C=C/C(=O)c2ccc(OCC)cc2)c2ccccc21 (stereo not drawn) | 1.2 | nt | nt | nt | ?
O=C(NCc1nc2ccccc2[nH]1)C1=C[C@@H](c2csc3ccccc23)C[C@@H](OCc2ccc(CO)cc2)O1 | 10 | nt | -1 | nt | 0
Cc1sc2ncnc(-n3nnc4ccccc43)c2c1C | 4.2 | nt | -4 | 4% | -5
COc1cc(C(=O)NCc2ccco2)c(Br)c(OC)c1OC | -0.8 | 5 | 5 | -10% | 5 | Arbovirus anti repeat=-6
CCOC(=O)CNC(=O)c1ccc(Cl)s1 | -2.8 | nt | 4 | -4% | -10

Quoted from the entries so far, 7 compounds:
SMILES | RecA intein inh | YopH PTP inh | Arbovirus anti | Mtb growth | Mtb betalactam | others
CCOC(=O)N1CCC(N2CCN(S(=O)(=O)c3ccc([N+](=O)[O-])cc3)CC2)CC1 | -1.4 | nt | nt | 1% | 5
COC(=O)[C@@]12CCCCN1[C@H](c1ccc(-c3ccc(F)cc3)cc1)[C@@H]1C(=O)N(C)C(=O)[C@@H]12 | 0.6 | nt | nt | nt | -5
O=C(O)C1CCCN(S(=O)(=O)c2ccc(-c3ccc(=O)[nH]n3)s2)C1 (stereo not drawn) | -5.9 | nt | nt | nt | 19
NC(=O)CSc1nnc(Cc2csc(Nc3ccccc3)n2)n1Cc1ccccc1 | 3.4 | -7 | -1 | -5% | 2
CN(c1ccccc1)S(=O)(=O)c1cccc(NC(=O)c2cc3ccccc3oc2=O)c1 | 2.7 | nt | nt | 9% | 5
COCCN1CSC(=S)N(Cc2ccco2)C1 | 0.6 | -46 | -3 | -2% | 53
Cc1cccc(-c2nc(CS(=O)CC(=O)NCCc3ccc(Cl)cc3)c(C)o2)c1 (stereo not drawn) | 0.5 | nt | nt | nt | -2

Going on with the list.
SMILES | RecA intein inh | YopH PTP inh | Arbovirus anti | Mtb growth | Mtb betalactam | others
CCNc1nc(NCC)nc(Oc2ccc(N)cc2)n1 | 0.1 | -17 | 2 | 2% | -6
Cc1ccc(C(O)c2ccc(-n3ccnc3)cc2)cc1 (stereo not drawn) | 4.7 | nt | nt | nt | 11
CCc1ccc(/C=C2\Oc3cc(OC(=O)N4CCOCC4)ccc3C2=O)cc1 | 0.3 | -42 | -3 | 7% | 9
CCOC(=O)C1CCN(Cc2cccc(OC)c2)CC1 | nt | -21 | -5 | -4% | 2
COc1cccc(CN2C(=O)C3(C(C#N)=C(N)OC4=C3C(=O)CCC4)c3ccccc32)c1 (stereo not drawn) | nt | 22 | -19 | -1% | -4
O=C(Nc1cccc(Cl)c1N1CCOCC1)c1ccc(Br)o1 | 1.0 | nt | nt | nt | 10
O=c1c2c([nH]n1-c1ccccc1)CCSC2 | 63* | nt | nt | nt | -2
O=C(NCCCN1CCOCC1)C1CCN(S(=O)(=O)c2c(Cl)cccc2Cl)CC1 | 0.7 | nt | nt | nt | 1
O=C(c1ccco1)[C@@H]1[C@@H]2C(=O)N(c3ccc(F)cc3)C(=O)[C@@H]2[C@H]2C=Cc3ccccc3N21 | nt | 40 | 0 | 7% | -1
CC(Sc1nnc(COc2ccc([N+](=O)[O-])cc2)n1C)C(=O)O (stereo not drawn) | 0.2 | nt | 3 | -4% | -15
N#Cc1ccc(COC(=O)CCc2c[nH]c3ccccc23)cc1 | 5.7 | nt | nt | nt | ?
CCOc1ccccc1NC(=O)c1ccc2nc[nH]c2c1 | -2.4 | nt | nt | nt | 20
O=C(C(=O)N1CCOCC1)c1cn(CCCOc2ccccc2)c2ccccc12 | -0.3 | nt | 3 | 0% | -3
CN1C(=O)NC(c2ccc(O)cc2)C(C(=O)c2cccs2)C1(O)C(F)(F)F (stereo not drawn) | 6.6 | -31 | 3 | 3% | -1
Cc1ncc(C[n+]2csc(CCOC(=O)C34CC5CC(CC(C5)C3)C4)c2C)c(N)n1 | 1.2 | nt | 3 | 4% | -1
COc1cc2nc(CN3CCN(S(=O)(=O)c4ccc(Cl)cc4)CC3)[nH]c(=O)c2cc1OC | 0.1 | nt | -28 | 3% | 2
Cc1cc(C)c2[nH]c(=O)c(CN(Cc3cccnc3)C(=S)NCCCN(C)C)cc2c1 | -0.5 | nt | 4 | -2% | 1
O=C(NCC1(O)CCCCC1)C1CCC(=O)N(Cc2ccccc2F)C1 (stereo not drawn) | 2.0 | nt | nt | nt | ?
Cc1nc2ccccc2cc1C(=O)Nc1ccccc1Cl | -0.8 | nt | 2 | -4% | -2
CC1CCC(NS(=O)(=O)c2ccc3c(c2)n(C)c(=O)c(=O)n3C)CC1 (stereo not drawn) | 0.7 | -8 | 5 | -4% | -31
CC(=O)O[C@@H]1/C=C/[C@](C)(O)C[C@@H](C)C/C=C/[C@H]2[C@H](O)[C@@](C)(O)[C@@H](C)[C@H]3[C@H](Cc4ccccc4)NC(=O)[C@@]312 | -1.6 | nt | nt | -1% | -6
CCN1CCN(C(=O)c2cnn3c(C(F)F)cc(-c4ccc(C)cc4)nc23)CC1 | -4.8 | 12 | 1 | 3% | 1
Cc1cc(C)nc(N/N=C/c2ccccc2Cl)n1 | 0.4 | nt | nt | 10% | -2
CC(=O)N(CCc1cccc(C)c1)Cc1cc2ccc(C)cc2[nH]c1=O | -2.2 | nt | nt | nt | -2
Cc1ccc(NC(=O)NCc2ccc3c(c2)OCO3)cc1C | -1.0 | nt | -9 | -4% | -1
COc1cc(NC(=O)c2c(F)cccc2F)nc(OC)n1 | -0.2 | -2 | -1 | -2% | -2
O=C(Nc1cccc(C(=O)N2CCOCC2)c1)c1cccnc1 | 2.0 | -12 | 2 | -4% | 1
Clc1ccc(OCc2cn3cccnc3n2)c2ncccc12 | 0.3 | -62 | -4 | -5% | nt
N#Cc1cccc(CN2CCCN(Cc3ccc(F)cc3)S2(=O)=O)c1 | 2.1 | nt | nt | nt | 1
CC(=O)N1CCN(C(=S)NC(=O)c2ccc(S(=O)(=O)N3CCOCC3)cc2)CC1 | 1.4 | -15 | 10 | 0% | 5
O=S1(=O)CCC(S(=O)(=O)N2CCCCCC2)C1 (stereo not drawn) | -0.9 | 8 | -5 | -9% | -2
CCn1cc([N+](=O)[O-])c(C(=O)Nc2nc3ccc(OC)cc3s2)n1 | -1.5 | nt | 11 | -8% | 4
Cc1ccc(-c2csc(N3N=C(c4ccccc4)/C(=C\c4ccc(N(C)C)cc4)C3=O)n2)cc1 | 4.2 | -3 | 11 | nt | 4
CCCC(c1nnnn1CCc1ccccc1)N1CCN(C2CCCC2)CC1 (stereo not drawn) | nt | -32 | 0 | 3% | -3
CC(C)(C)n1cnc2cc(NS(=O)(=O)c3ccc(Br)cc3)ccc21 | 5.0 | -21 | 6 | 2% | 20
O=C1NCN(c2ccccc2)C12CCN(CCCC(c1ccc(F)cc1)c1ccc(F)cc1)CC2 | 38* | nt | -30 | 53% | 100
O=C(CN1C(=O)C2CCCCC2C1=O)Nc1ccccc1N1CCCC1 (stereo not drawn) | 0.0 | nt | nt | nt | 1
